# KCNQ2 inh: KCNQ2 potassium channel inhibitors, primary screen, cell-based, CHO-K1, FluxOR thallium flux, B-score (AID 2156); B-score at 10 µM; hit rate 1.1% among 310,000; 20 min; hits give low values; only compounds with negative scores are shown here; some inactives read as strong as hits; O88943;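 active = fluorescence ratio B-score at most minus 3 library SDs, with starting brightness B-score within 2 library SDs, cut at about -5.5 in these data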
# Target sequence (O88943 whole entry, looked up): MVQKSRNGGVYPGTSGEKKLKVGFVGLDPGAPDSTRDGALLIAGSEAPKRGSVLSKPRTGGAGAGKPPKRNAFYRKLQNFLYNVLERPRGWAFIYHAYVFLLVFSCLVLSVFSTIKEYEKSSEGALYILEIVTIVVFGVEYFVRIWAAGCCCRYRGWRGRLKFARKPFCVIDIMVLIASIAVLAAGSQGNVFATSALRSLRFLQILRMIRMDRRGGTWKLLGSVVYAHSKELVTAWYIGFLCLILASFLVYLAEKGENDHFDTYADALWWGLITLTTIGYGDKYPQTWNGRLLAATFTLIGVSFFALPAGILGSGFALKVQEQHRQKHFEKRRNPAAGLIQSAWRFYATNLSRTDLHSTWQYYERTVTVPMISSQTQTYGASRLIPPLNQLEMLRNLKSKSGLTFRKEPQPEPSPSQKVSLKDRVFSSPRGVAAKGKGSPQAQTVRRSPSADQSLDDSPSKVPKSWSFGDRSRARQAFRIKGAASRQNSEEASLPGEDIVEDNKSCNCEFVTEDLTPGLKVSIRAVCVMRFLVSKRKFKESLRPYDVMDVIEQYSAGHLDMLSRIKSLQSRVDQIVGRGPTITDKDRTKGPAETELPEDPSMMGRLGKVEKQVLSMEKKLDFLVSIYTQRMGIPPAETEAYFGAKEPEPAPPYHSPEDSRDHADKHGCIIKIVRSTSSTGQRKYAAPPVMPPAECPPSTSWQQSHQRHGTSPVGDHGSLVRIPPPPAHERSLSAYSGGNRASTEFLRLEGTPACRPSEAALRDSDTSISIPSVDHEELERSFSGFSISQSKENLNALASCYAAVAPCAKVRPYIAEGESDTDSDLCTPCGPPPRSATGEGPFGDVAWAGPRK
# KCNQ2 inh baseline: also measured in KCNQ2 inh; calls as there; B-score; measured here: initial fluorescence intensity artifact check;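 brightness before thallium and not channel activity; 0 = typical well and far values either way flag optical interference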
# An asterisk follows results filed as active; i = inactive. This is a subset; rates above refer to the full screens.
SMILES,KCNQ2 inh,KCNQ2 inh baseline
O=C1CCC(C(=O)N2CCCC(C(=O)c3ccc4c5c(cccc35)CC4)C2)=NN1 (configuration not stated),i,-0.4
N#Cc1c(N)nc(SCC(=O)OCc2ccccc2)c(C#N)c1-c1ccco1,i,0.38
Cc1ccc(N2CC(c3nc4ccccc4n3C)CC2=O)cc1 (configuration not stated),i,2
Cc1ccc(SCCN2CCC(O)CCC2=O)cc1 (configuration not stated),i,0.35
O=C(CSc1nnc(-c2ccncc2)n1Cc1ccccc1)Nc1nccs1,i,-0.28
Fc1nc(F)c(F)c(NCCCNc2c(F)c(F)nc(F)c2F)c1F,i,-0.92
O=c1[nH]c(C2CCN(S(=O)(=O)c3ccc4c(c3)OCCO4)CC2)nc2c1nnn2Cc1c(F)cccc1Cl,i,-0.1
CCOC(=O)C1CCCN(CCC(=O)Nc2cc(OC)ccc2OC)C1 (configuration not stated),i,1.1
CCn1ncc(C2=NOC(C(=O)N3CCN(c4ccccc4)CC3)C2)c1C (configuration not stated),i,1.1
COc1cc(/C=C2\SC(N3CCc4ccccc4C3)=NC2=O)cc(OC)c1OC,i,0.32
O=C(NCc1ccc(F)cc1)C(=O)NCC1CCCN1S(=O)(=O)c1ccccc1 (configuration not stated),i,-0.28
CC1CCN(C(=S)c2ccc(N(C)C)cc2)CC1,i,-0.48
CCN1C(=O)[C@H]2[C@@H](c3ccc(Cl)cc3)N3C(=O)CN(Cc4ccccc4)C(=O)[C@@]3(C)[C@H]2C1=O,i,-2.2
CCn1cc(C(=O)N2CCN(c3ccc(OC)cc3)CC2)c(=O)c2cc(S(=O)(=O)N3CCOCC3)ccc21,i,-0.16
COc1ccccc1NC(=O)C(C)OC(=O)CCSc1ccc(F)cc1 (configuration not stated),i,-0.13
CCOC(=O)c1nc(Nc2ccc(N3CCOCC3)cc2)c2ccccc2n1,i,-0.44
COc1ccccc1Nc1nc(C)c(C(=O)Nc2ccccc2)s1,i,2.3
NC(=O)C1CCN(C(=O)C(=O)c2cn(CC(=O)N3CCCC3)c3ccccc23)CC1,i,-0.03
CCn1c2ccccc2c2cc(/C=N/NC(=O)c3ccccc3C)ccc21,i,-0.59
CCCCN(C)CCNC(=O)C1CCCN(S(=O)(=O)c2cccc3nsnc23)C1 (configuration not stated),i,-1.9
CCOc1cc(C2NN=C(c3ccccc3)S2)ccc1OCc1ccc(F)cc1 (configuration not stated),i,-0.01
COc1ccc(N(CC(=O)NCc2ccccc2OC)S(=O)(=O)c2ccccc2[N+](=O)[O-])c(OC)c1,i,-1
COc1ccccc1NC(=O)C(C)OC(=O)CCC1CCCCC1 (configuration not stated),i,0.89
COc1cc(C(C)=O)ccc1OCC(O)CN1CCN(S(=O)(=O)c2ccccc2)CC1 (configuration not stated),i,-1.3
Cc1c(Nc2ncnc3nc[nH]c23)c(=O)n(-c2ccccc2)n1C,i,0.12
O=C1Nc2ccccc2/C1=N/c1sc2c(c1C(=O)NCCc1ccccc1)CCCC2,i,-0.69
CCOc1ccc(Nc2nc(Cc3nnc(SCC(N)=O)o3)cs2)cc1,i,0.12
O=C(Nc1ccccc1C(=O)N1CCCCCC1)c1ccc(F)cc1,i,0.81
COc1ccc(/C(N)=N/OC(=O)c2cccs2)cc1,i,0.38
C/C(=N\NC(=O)c1ccc2c(c1)OCO2)c1ccc(C(=O)O)s1,i,-1.2

# Shown tab-delimited: part of the list above.
SMILES	KCNQ2 inh	KCNQ2 inh baseline
COc1ccccc1NC(=O)C(C)OC(=O)CCC1CCCCC1 (configuration not stated)	i	0.89
COc1cc(C(C)=O)ccc1OCC(O)CN1CCN(S(=O)(=O)c2ccccc2)CC1 (configuration not stated)	i	-1.3
Cc1c(Nc2ncnc3nc[nH]c23)c(=O)n(-c2ccccc2)n1C	i	0.12
O=C1Nc2ccccc2/C1=N/c1sc2c(c1C(=O)NCCc1ccccc1)CCCC2	i	-0.69
CCOc1ccc(Nc2nc(Cc3nnc(SCC(N)=O)o3)cs2)cc1	i	0.12
O=C(Nc1ccccc1C(=O)N1CCCCCC1)c1ccc(F)cc1	i	0.81

# Continued.
SMILES,KCNQ2 inh,KCNQ2 inh baseline
CN(C(=O)COC(=O)c1ccc2c(c1)NC(=O)CS2)C1CCS(=O)(=O)C1 (configuration not stated),i,0.81
COc1ccc(-c2cc(C)no2)cc1S(=O)(=O)N1CCN(c2ccc([N+](=O)[O-])cc2)CC1,i,-1.5
Cc1ccc2nc(/C(C#N)=C\c3ccc([N+](=O)[O-])o3)[nH]c2c1,i,1.4
O=C(CCCc1nc2ccccc2s1)NC(c1ccccc1)c1ccccc1,i,0.76
C=CCOC(=O)/C(=C/c1ccco1)NC(=O)/C=C/c1ccccc1,i,-1.7
COc1cccc(C(C(=O)NC2CCCC2)N(Cc2cccnc2)C(=O)Cc2cccs2)c1 (configuration not stated),i,1.3
COc1ccccc1C(=O)NC(=O)COc1ccc([N+](=O)[O-])cc1,i,-0.64
C/C=C/c1ccc(OCC(=O)OCC)c(OC)c1,i,0.27
CC(=O)c1ccc(NC(=O)C(Cc2ccccc2)NC(=O)c2ccco2)cc1 (configuration not stated),i,-2.1
CCc1ccccc1NC(=O)/C(=C/c1ccccc1)c1ccccc1,-9.3*,-0.22*
COc1ccc(CCN2CC(C(=O)NCc3c(C)n[nH]c3C)CCC2=O)cc1 (configuration not stated),i,-0.5
CN1C[C@@H]2C(c3ccc(Cl)nc3)C3(c4ccc(C#N)cc4)CC2(C3)[C@H]1c1ccccc1 (some centres not stated),i,-0.15
Cc1[nH]n(-c2nc(-c3ccc(Cl)cc3)cs2)c(=O)c1N=Nc1ccc(O)cc1,i,-0.32
O=C(OCCN1CCN(c2ncc(C(F)(F)F)cc2Cl)CC1)c1ccc(Cl)cc1,i,-0.6
O=C(c1ccc([N+](=O)[O-])s1)N1CCN(c2ccc(C(F)(F)F)cn2)CC1,i,-1.4
Clc1ccc(CCNc2ncnc3c2nnn3Cc2ccccc2)cc1,i,0.54
Cc1cc(C)n2nc(SCC(N)=O)nc2n1,i,-0.78
CCOC(=O)c1nonc1NC(C)=O,i,-0.38
O=C(/C=C/c1ccccc1)NCCS(=O)(=O)N1CCN(c2ccccc2F)CC1,i,-0.18
CCOC(=O)C(=O)Nc1ccc(Oc2ccccc2)cc1,i,-0.25
O=C(Nc1cc(Cl)ccc1N1CCOCC1)c1ccco1,i,0.69
O=C(Nc1ccc(Br)cc1Cl)NC1CC1,i,0.01
COc1cccc(C(N)=O)c1,i,0.67
CCOc1ccccc1-c1nn2c(Cc3ccccc3)nnc2s1,i,-1.2
COc1ccccc1Cn1c(=S)[nH]c2cc(C(=O)NCCN(C)C)ccc2c1=O,i,0.55
O=C(CCc1ccccc1)Nc1ccncc1,i,2.2
CCc1cccc(OCC(=O)Nc2ccc(S(=O)(=O)Nc3ccccn3)cc2)c1,i,0.36
CCS(=O)(=O)N1Cc2ccccc2CC1C(=O)N(C)Cc1ccc(OC)cc1OC (configuration not stated),i,-1.4
CCn1nc(C)c(CN2CCN(Cc3cccc(OC)c3)C(CCO)C2)c1C (configuration not stated),i,-0.79
CSc1nnc(-c2ccc(F)cc2)o1,i,0.01
CC1CCN(C(=O)C2CCN(CC(C)c3ccccc3)CC2)CC1 (configuration not stated),i,1.1
O=C1c2cccc3c([N+](=O)[O-])ccc(c23)C(=O)N1Cc1cccnc1,i,0.69
COc1ccc(OC)c(CN2CCN(C(=O)c3cccc4ccccc34)CC2)c1,i,0.62
CC(C)c1cccc(OCCN2CCCC2)c1,i,-0.12
CCOC(=O)C1=C(c2ccccc2)N=c2s/c(=C\c3ccco3)c(=O)n2C1c1cccs1 (configuration not stated),i,-1.1
COc1ccc(Nc2cc(C)c3ccccc3n2)cc1,i,-2.2
COc1ccc(CNC(=O)CCSCc2ccccc2C)cc1,i,-0.27
Cc1ccc(-c2nn(-c3ccccc3)cc2C2CC(c3cccs3)=NN2C(=O)CCCC(=O)O)cc1 (configuration not stated),i,0.07
COc1ccc(N2CCN(C(=O)CN(C)S(=O)(=O)c3ccc4c(c3)c(=O)n(C)c(=O)n4C)CC2)cc1,i,-0.25
COCC(=O)N(C)C1(c2nnnn2CCOC(=O)Nc2cccc3ccccc23)CCCC1,i,1.1

# Structures from the list above containing a Cl atom, in the order listed:
SMILES,KCNQ2 inh,KCNQ2 inh baseline
O=c1[nH]c(C2CCN(S(=O)(=O)c3ccc4c(c3)OCCO4)CC2)nc2c1nnn2Cc1c(F)cccc1Cl,i,-0.1
CCN1C(=O)[C@H]2[C@@H](c3ccc(Cl)cc3)N3C(=O)CN(Cc4ccccc4)C(=O)[C@@]3(C)[C@H]2C1=O,i,-2.2
CN1C[C@@H]2C(c3ccc(Cl)nc3)C3(c4ccc(C#N)cc4)CC2(C3)[C@H]1c1ccccc1 (some centres not stated),i,-0.15
Cc1[nH]n(-c2nc(-c3ccc(Cl)cc3)cs2)c(=O)c1N=Nc1ccc(O)cc1,i,-0.32
O=C(OCCN1CCN(c2ncc(C(F)(F)F)cc2Cl)CC1)c1ccc(Cl)cc1,i,-0.6
Clc1ccc(CCNc2ncnc3c2nnn3Cc2ccccc2)cc1,i,0.54
O=C(Nc1cc(Cl)ccc1N1CCOCC1)c1ccco1,i,0.69
O=C(Nc1ccc(Br)cc1Cl)NC1CC1,i,0.01

# The list goes on:
SMILES,KCNQ2 inh,KCNQ2 inh baseline
C/C(=N\NC(=O)OC(C)(C)C)c1ccccc1Br,i,0.2
CC(C)CCn1c(O)c(N=Nc2ccccn2)c2ccccc21,i,0.87
Cc1ccc(S(=O)(=O)N2CCN(C(=O)CCn3nc(C)c(C)c3C)CC2)cc1,i,0.91
O=[N+]([O-])c1ccc(N2CCN(c3ccccc3)CC2)cc1,i,-0.07
COc1ccc(-c2cc(C(=O)N/N=C/c3cccnc3)c3ccccc3n2)cc1,i,-3
CC(=O)Nc1nnc(-c2c(-c3c(Cl)cccc3Cl)noc2C)o1,i,0.72
Cc1cc(C)nc(OC(C(=O)O)C(OCCc2ccccc2)(c2ccc(F)cc2)c2ccc(F)cc2)n1 (configuration not stated),i,-0.31
COC(CNS(=O)(=O)c1cccc2nonc12)OC,i,-1.8
CCCCN(CCCNC(=O)C1CCN(C(=O)c2cc3sccc3n2C)CC1)Cc1ccccc1,i,1.1
O=C(CCSCc1ccccc1Cl)NC1CCCCC1,i,1.5
COc1ccc(CCC(=O)N/N=C(\C)c2ccc3c(c2)OCO3)cc1,i,-0.07
CCSc1nnc(NC(=O)C2(C)Cc3ccccc3C(=O)O2)s1 (configuration not stated),i,-1.1
CC(C)NC(=O)Cn1c(SCC(=O)N2CCCCCC2)nc2ccccc21,i,0.15
O=C(CN1C(=O)C2(OCCCO2)c2ccccc21)NCCc1ccccc1,i,0.99
O=C(OCC(=O)N1CCCc2ccccc21)c1ccc(S(=O)(=O)C(F)F)cc1,i,-1.6
COCCNC(=O)c1cc(-c2ccc(-c3ccccc3)cc2)nc2ccccc12,i,-1.9
COc1cc(NC(=O)c2oc3ccccc3c2C)ccc1NC(=O)c1ccco1,i,-0.49
COC(=O)c1ccc(SC)cn1,i,-1.4
CC(C)(C)OC(=O)N1CCC(c2c(C(=O)N3CCN(C(=O)c4ccco4)CC3)cnn2-c2ccc(F)cc2)CC1,i,-0.06
O=C(COC(=O)C1CCCC1)NCc1ccc(Cl)cc1,i,0.71
CCOC(=O)C1C(=O)CC(C)(O)C(C(=O)OCC)C1c1ccc([N+](=O)[O-])cc1 (configuration not stated),i,-0.64
C=CCNC(=O)[C@@H]1CSC2c3ccc(OC)c(OC)c3C(=O)N21 (some centres not stated),i,-0.8
CCOC(=O)c1ccc2c(c1)C(=O)N(C1CCCCC1)C2=O,i,-0.85
COc1ccc(C(=O)NCCc2c[nH]c3ccccc23)cc1,i,0.27
O=C(N/N=C/c1coc2ccccc2c1=O)c1cn(-c2ccccc2)nc1-c1ccc(F)cc1,i,-0.22
O=C1CCN(CCc2ccccc2)CCN1[C@H](COc1ccccc1)Cc1ccccc1,i,-0.69
O=C1NN=COc2ccccc21,i,4.2
O=C(CSc1nc2scc(-c3ccccc3)c2c(=O)[nH]1)Nc1ccccc1,i,1.2
O=C1CN2Cc3c(ccc(Cl)c3Cl)N=C2N1,i,0.02
COc1ccc(CC(NC(C)=O)C(=O)NC2CCN(C(=O)c3cc(OC)c(OC)c(OC)c3)CC2)cc1 (configuration not stated),i,-0.36
O=C(Nc1nn[nH]n1)c1cccc([N+](=O)[O-])c1,i,0.33
Nc1c(NC2CCCCC2)c2ccccc2oc1=O,i,-1.8
CC1(C)C2CC=C(/C=N/NC(=O)c3ccccc3O)C1C2 (configuration not stated),i,0.68
CCc1ccc(NC(=O)C2CCN(S(=O)(=O)c3ccc4[nH]c(=O)ccc4c3)CC2)cc1,i,-1.6
CC(C)CNC(=O)[C@@H]1CSC2c3ccccc3C(=O)N21 (some centres not stated),i,-2.3
C#CCNC(=O)C1=C[C@H](c2ccc(C(F)(F)F)cc2)C[C@H](OCCCCO)O1,i,0.36
CC(C)(C)Cc1nnc(NC(=O)Cc2cccs2)s1,i,0.91
CCc1ccc(NC(=O)COc2coc(CN3CCN(c4ccccc4)CC3)cc2=O)cc1,i,-1.4
O=C(N/N=C\c1cccs1)c1sccc1-n1cccc1,i,-0.11
COc1ccc(NC(=O)C(Cc2ccccc2)n2cccc2)c(OC)c1 (configuration not stated),i,-0.28
Cc1ccc(S(=O)(=O)N2CCC(C(=O)OCC(=O)N(Cc3ccccc3)C(C)(C)C)CC2)cc1C,-6.5*,-0.11*
O=S(=O)(Nc1ncnc2scc(-c3ccc(F)cc3)c12)c1cc(F)ccc1F,i,-0.7
Cc1ccc(NC(=O)c2oc3c(c2C)C(=O)CC(C)(C)C3)cc1,i,1.7
CCOC(=O)c1cc(NC(=O)c2ccc(OC)cc2)c(=O)oc1-c1ccccc1,i,-1.1
Cc1cc(C)c2nc(N(CCCN(C)C)C(=O)c3ccc4c(c3)OCCO4)sc2c1,-5.8*,-1.5*
CCCCSc1nn[nH]n1,i,-0.04
COc1ccc(S(=O)(=O)NCc2ccccn2)cc1Cl,i,0.58
O=C(/C=C/c1ccccc1)NCCc1ccc2c(c1)OCCO2,i,0.2
COc1cccc(C(=O)Nc2ccc(N(C)C)cc2)c1OC,i,-1.5
